CSC inhib = cancer stem cell viability inhibitors, primary screen, luminescence; cancer stem cell-like cells viability; inhibition, % at 7.5 µM; 300,000 compounds, 1.1% hits; AID 2717, 2010;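 active = mean at 75% or more and at least half the replicates too; inconclusive = mean and replicates disagree; tested in HMLE shEcad cells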;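 note: 0% = median of negative and 100% = median of positive control wells; the first replicate is given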
MT1-MMP act inh = blockers of MT1-MMP proenzyme processing, primary screen, HT1080 RFP-PRO-GFP cells, GFP/RFP fluorescence; AID 651647, 2012; 360,000 compounds, 0.061% hits; GFP/RFP ratio fluorescence, overnight; percent of plate control window, DMSO zero; GFP/RFP ratio change, % at 20 µM; Matrix metalloproteinase-14 (Homo sapiens), P50281;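 active = GFP/RFP ratio change of at least 30% with cell ATP level not reduced by more than half and red fluorescence within 50% of control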; note: strong numbers were not always called active
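Assay system: HT1080 RFP-PRO-GFP cells. Benchmarks: DMSO vehicle wells and RFP-L50D-GFP reporter cell wells. Times: overnight cell settling, then overnight compound exposure, 37 °C, 5% CO2. Compound: 20 µM single dose, 1% DMSO. Read-out basis: GFP/RFP fluorescence ratio.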
UUG fidelity = modulators of yeast start codon fidelity, primary screen, whole organism, S. cerevisiae, single point, plate reader; S. cerevisiae UUG-firefly luciferase reporter, luminescence/redox ratio; activity score, % at 18.7 µM; 350,000 compounds, 0.13% hits;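 active = replicate mean at a twofold rise or more, about +100% in these data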;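 note: firefly luciferase made from a UUG start codon reports start codon fidelity; reporter light over untreated wells divided by growth signal over untreated wells; some hits fall short of that in this replicate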
PABP FP inh = PABP poly(A) RNA binding inhibitors, primary screen, biochemical, fluorescence polarization, uHTS; 290,000 compounds, 1% hits; Polyadenylate-binding protein 1 (Homo sapiens), P11940; inhibition, % at 35 µM;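 active = 50% or more with normal probe brightness, or confirmed in later tests; inconclusive = above 50% with abnormal brightness, or retests that disagree; inactive = below 50% or failed in later tests; about a fifth of its hits are not listed in these tables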;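 note: calls also rest on retests at 20 µM and on dose response follow-up; controls were probe without protein and protein plus probe with vehicle; some compounds called inactive have numbers as strong as hits; many hits fall short of the cut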
Rce1 inh = yeast Rce1p protease inhibitors, primary screen, biochemical, fluorescence, cell-free homogeneous. calls only. 290,000 compounds, 0.27% hits. CAAX prenyl protease 2 (Saccharomyces cerevisiae (strain ATCC 204508 / S288c)), Q03530. AID 2563, 2010. yeast membranes, quenched prenylated peptide cleavage fluorescence;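 active = fall in fluorescence gain of 50% or more versus controls, with final raw signal at or below 3038400; inconclusive = same 50% fall but final raw signal above 3038400; inactive = fall in fluorescence gain under 50%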;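 note: plate controls were neutral control wells for no effect and wells lacking membranes for full effect; tested at 10 µM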
Target sequence (Q03530 whole entry, looked up): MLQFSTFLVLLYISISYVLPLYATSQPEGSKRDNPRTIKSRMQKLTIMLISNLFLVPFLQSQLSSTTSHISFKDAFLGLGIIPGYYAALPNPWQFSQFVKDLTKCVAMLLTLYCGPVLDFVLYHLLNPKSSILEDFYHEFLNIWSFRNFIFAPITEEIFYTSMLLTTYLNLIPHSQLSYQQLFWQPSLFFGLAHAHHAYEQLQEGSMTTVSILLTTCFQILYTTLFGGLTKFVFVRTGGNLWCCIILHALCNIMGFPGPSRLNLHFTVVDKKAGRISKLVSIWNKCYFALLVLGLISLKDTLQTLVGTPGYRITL
eIF4H inh = human eIF4H binding inhibitors, primary screen, translation initiation inhibitor project, biochemical, uHTS, fluorescence polarization; Eukaryotic translation initiation factor 4H (Homo sapiens), Q15056; eIF4H fluorescence polarization binding assay; inhibition, % at 35 µM; 290,000 compounds, 0.94% hits; AID 2012, 2009;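 active = 50% or more with normal probe brightness, or confirmed in later tests; inconclusive = above 50% with abnormal brightness, or retests that disagree; inactive = below 50% or failed in later tests; about a fifth of its hits are not listed in these tables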;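 note: calls also rest on retests at 20 µM and on dose response follow-up; 0% = protein and probe with vehicle and 100% = probe without protein; strong numbers were not always called active; many hits fall short of the cut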
HIV Env fusion = inhibitors of HIV-1 Env-driven cell-cell fusion, primary screen, HeLa-JRFL effector, CEM21 target cells, luciferase. inhibition, % at 12.3 µM. 360,000 compounds, 1.1% hits. AID 651610, 2012;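 active = mean replicate inhibition score of at least 50 and every replicate individually at or above 50; inconclusive = only one of the two criteria met; inactive = mean below 50 and not all replicates reaching 50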;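 note: 0% = plate neutral controls and 100% = maraviroc near 300 nM; one replicate is shown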
MT1-MMP act inh RFP = further read-out of MT1-MMP act inh, marked with its call; RFP signal change, %; measured here: RFP expression control read;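 0 = vehicle wells; hits needed this value within 50% of zero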
Numbers without * were called inactive. A portion of the library; the hit share may differ from the screen's.

Results for O=C(CSCc1ccccc1)N1CCN(S(=O)(=O)c2ccc(F)cc2)CC1 ?
CSC inhib: -3.1; MT1-MMP act inh: -1.1; UUG fidelity: -6.8; PABP FP inh: 1.8; eIF4H inh: -10.3; HIV Env fusion: 30.7; MT1-MMP act inh RFP: 2.2

What do the screens show for `CC1(c2nnc(-c3ccncc3)o2)CC(c2cccnc2)=NO1` (stereo unspecified)?
CSC inhib: -30.5; MT1-MMP act inh: 2.0; UUG fidelity: -13.9; Rce1 inh: inactive; HIV Env fusion: 6.2; MT1-MMP act inh RFP: 2.0

What do the screens show for `COc1ccc(NC(=O)NNC(=O)c2ccccc2-n2cccc2)cc1OC`?
CSC inhib: -17.3; MT1-MMP act inh: -0.5; PABP FP inh: 1.4; Rce1 inh: inactive; eIF4H inh: -5.3; HIV Env fusion: 4.8; MT1-MMP act inh RFP: 3.2

Results for O=C(COC(=O)c1ccc2ccccc2c1)NCCCc1ccccc1 ?
CSC inhib: 5.5; MT1-MMP act inh: -4.8; UUG fidelity: -5.8; PABP FP inh: 7.4; Rce1 inh: inactive; eIF4H inh: -5.0; HIV Env fusion: -16.0; MT1-MMP act inh RFP: -1.0

How did Cc1cccc(NC(=O)CCc2ccccc2)c1C do in these assays?
CSC inhib: -1.8; MT1-MMP act inh: 2.4; UUG fidelity: -15.9; PABP FP inh: 4.1; Rce1 inh: inactive; eIF4H inh: -3.2; HIV Env fusion: 10.2; MT1-MMP act inh RFP: 3.7

Results for O=C(c1ccccc1Cl)N1CCC(O)(c2cccnc2)CC1 ?
CSC inhib: -10.6; MT1-MMP act inh: -0.8; PABP FP inh: -5.8; Rce1 inh: inactive; eIF4H inh: -10.5; HIV Env fusion: 11.5; MT1-MMP act inh RFP: 2.0

How did C=C(C)C(=O)Nc1cccc(C2=NOC3(C2)C[C@@H](C(N)=O)N(C(=O)C(=C)C)C3)c1 (stereo partly specified) do in these assays?
CSC inhib: -1.4; MT1-MMP act inh: 2.6; UUG fidelity: -14.5; PABP FP inh: 61.0*; Rce1 inh: inactive; eIF4H inh: 93.0*; HIV Env fusion: -1.4; MT1-MMP act inh RFP: 1.5

What do the screens show for `CCCN1C(=O)c2ccccc2NC1c1ccc(O)c(OCC)c1` (stereo unspecified)?
CSC inhib: -18.5; MT1-MMP act inh: -1.3; PABP FP inh: -1.1; Rce1 inh: inactive; eIF4H inh: -6.4; HIV Env fusion: 9.4; MT1-MMP act inh RFP: -1.2

Results for Cc1cc(C)c(N=C2CCCN2Cc2ccccc2)c(C#N)c1 ?
CSC inhib: 11.9; MT1-MMP act inh: -0.8; UUG fidelity: -12.1; PABP FP inh: 4.9; Rce1 inh: inactive; eIF4H inh: 1.9; MT1-MMP act inh RFP: -4.3

Results for O=C(N/N=C/c1ccc(O)cc1)c1cc(-c2ccc3c(c2)OCO3)n[nH]1 ?
CSC inhib: 127.4*; MT1-MMP act inh: 4.2; UUG fidelity: -11.3; PABP FP inh: -2.8; Rce1 inh: inactive; eIF4H inh: -5.4; MT1-MMP act inh RFP: 2.2

The closing two compounds of the part before are carried over, then new ones follow:
Results for Cc1cc(C)c(N=C2CCCN2Cc2ccccc2)c(C#N)c1 ?
CSC inhib: 11.9; MT1-MMP act inh: -0.8; UUG fidelity: -12.1; PABP FP inh: 4.9; Rce1 inh: inactive; eIF4H inh: 1.9; MT1-MMP act inh RFP: -4.3

Results for O=C(N/N=C/c1ccc(O)cc1)c1cc(-c2ccc3c(c2)OCO3)n[nH]1 ?
CSC inhib: 127.4*; MT1-MMP act inh: 4.2; UUG fidelity: -11.3; PABP FP inh: -2.8; Rce1 inh: inactive; eIF4H inh: -5.4; MT1-MMP act inh RFP: 2.2

What do the screens show for `COc1cccc(Cn2c3ccc(NC(=O)CC(C)C(F)(F)F)cc3c(=O)n2C)c1` (stereo unspecified)?
MT1-MMP act inh: -1.7; UUG fidelity: 8.2; HIV Env fusion: 24.4; MT1-MMP act inh RFP: -1.3

How did CCOC(=O)CSc1nc2cc(OC)ccc2cc1C#N do in these assays?
CSC inhib: -3.6; MT1-MMP act inh: -0.7; UUG fidelity: -9.5; PABP FP inh: 9.4; Rce1 inh: inactive; eIF4H inh: 12.2; HIV Env fusion: inactive; MT1-MMP act inh RFP: 3.6

How did CC(C)N(c1nnc(N)s1)C(C)C do in these assays?
CSC inhib: -9.8; MT1-MMP act inh: 1.7; UUG fidelity: -22.5; PABP FP inh: -4.9; Rce1 inh: inactive; eIF4H inh: -5.4; HIV Env fusion: 10.7; MT1-MMP act inh RFP: 1.6

Results for Cc1ccnc(NC(=O)c2cnc(Cl)c(Cl)c2)c1 ?
MT1-MMP act inh: 3.6; UUG fidelity: -15.8; PABP FP inh: 10.1; Rce1 inh: inactive; eIF4H inh: -6.6; HIV Env fusion: -2.9; MT1-MMP act inh RFP: 4.5

Results for CC(C(=O)Nc1ccccc1C(=O)O)n1c(C(F)(F)F)nc2ccccc21 (stereo unspecified) ?
CSC inhib: -3.0; MT1-MMP act inh: -2.8; PABP FP inh: 29.5; Rce1 inh: inactive; eIF4H inh: -5.8; HIV Env fusion: -11.7; MT1-MMP act inh RFP: -0.3

What do the screens show for `Cc1ccc(S(=O)(=O)N2CCCCC2)cc1NC(=O)CN1CCCC1c1cccs1` (stereo unspecified)?
MT1-MMP act inh: 8.0; UUG fidelity: -0.8; HIV Env fusion: -11.7; MT1-MMP act inh RFP: 8.8

What do the screens show for `CCOc1ccc(S(=O)(=O)NCCC(=O)OCC(=O)c2ccc[nH]2)cc1`?
CSC inhib: -11.7; MT1-MMP act inh: 0.4; PABP FP inh: -10.9; Rce1 inh: inactive; eIF4H inh: 14.9; HIV Env fusion: -1.6; MT1-MMP act inh RFP: 2.6

How did COc1ccc(/C=N/n2c(=O)[nH]c3c([nH]c4ccc(F)cc43)c2=O)cc1CN1CCCCC1 do in these assays?
CSC inhib: -5.1; MT1-MMP act inh: 4.1; UUG fidelity: -15.2; PABP FP inh: -12.9; eIF4H inh: -15.7; HIV Env fusion: -1.4; MT1-MMP act inh RFP: -0.1

How did CC(=O)Nc1ccc(OC(=O)C(CCS(C)(=O)=O)N2C(=O)c3ccccc3C2=O)cc1 (stereo unspecified) do in these assays?
CSC inhib: 18.3; MT1-MMP act inh: 3.5; UUG fidelity: -10.9; PABP FP inh: -1.3; Rce1 inh: inactive; eIF4H inh: -10.1; MT1-MMP act inh RFP: -3.3

What do the screens show for `CC1(C)C(c2cccs2)=[N+]([O-])C2(CCCCC/C2=N\O)N1O` (stereo unspecified)?
MT1-MMP act inh: -1.2; UUG fidelity: -18.0; PABP FP inh: -5.5; Rce1 inh: inactive; eIF4H inh: -0.9; HIV Env fusion: -64.8; MT1-MMP act inh RFP: -2.5

What do the screens show for `Cc1cc(O)c(C(C)C)cc1NC(=O)c1ccccc1Cl`?
MT1-MMP act inh: 6.3; UUG fidelity: -6.6; PABP FP inh: 9.0; Rce1 inh: inactive; eIF4H inh: 29.5; MT1-MMP act inh RFP: 2.8

Results for NS(=O)(=O)c1ccc(NC2=CC(=O)C(=O)c3ccccc32)cc1 ?
CSC inhib: 60.9; MT1-MMP act inh: 9.8; UUG fidelity: -19.0; PABP FP inh: 13.9; Rce1 inh: inactive; eIF4H inh: 5.0; HIV Env fusion: -2.6; MT1-MMP act inh RFP: -0.4

How did CN(c1ccccc1)S(=O)(=O)c1cc(C(=O)N2CCN(c3ncccn3)CC2)ccc1Cl do in these assays?
CSC inhib: 3.3; MT1-MMP act inh: 4.8; UUG fidelity: 1.3; HIV Env fusion: inconclusive; MT1-MMP act inh RFP: -3.7

Results for CC(C)(C)C(=O)COC(=O)c1cc(-c2cccnc2)nc2ccccc12 ?
CSC inhib: -15.8; MT1-MMP act inh: -1.0; PABP FP inh: -4.2; Rce1 inh: inactive; eIF4H inh: 0.4; HIV Env fusion: 8.9; MT1-MMP act inh RFP: 0.5

What do the screens show for `O=C1c2ccccc2C(=O)C1c1ccc(O)cc1`?
MT1-MMP act inh: 2.8; UUG fidelity: -23.0; PABP FP inh: 9.6; eIF4H inh: 1.2; HIV Env fusion: -20.6; MT1-MMP act inh RFP: 4.4

Results for COc1ccccc1C(=O)Nc1ccc2ccccc2c1 ?
CSC inhib: 6.2; MT1-MMP act inh: -4.6; Rce1 inh: inactive; HIV Env fusion: -409.6; MT1-MMP act inh RFP: -3.5

Results for CC(=O)c1ccc(NC(=S)NNC(=O)NC2CCCCC2)cc1 ?
CSC inhib: -15.9; MT1-MMP act inh: -1.1; PABP FP inh: -1.2; Rce1 inh: inactive; eIF4H inh: -3.3; HIV Env fusion: 14.6; MT1-MMP act inh RFP: -7.0

Results for Cc1ccc(-n2nc3c(=O)n(CCCC(=O)NCc4ccccc4Cl)nc(C)c3c2C)cc1 ?
CSC inhib: -7.0; MT1-MMP act inh: 10.8; UUG fidelity: 4.7; PABP FP inh: 8.2; Rce1 inh: inactive; eIF4H inh: -4.8; HIV Env fusion: 12.0; MT1-MMP act inh RFP: -1.1

Results for O=C(OCCN1CCOCC1)c1ccc(OCCN2CCOCC2)cc1 ?
CSC inhib: -6.4; MT1-MMP act inh: 6.0; UUG fidelity: -14.9; PABP FP inh: 17.8; Rce1 inh: inactive; eIF4H inh: -18.5; MT1-MMP act inh RFP: 8.6

Results for CC(=O)Nc1ccc(NC(=O)CCC(=O)OCC(=O)c2cccc([N+](=O)[O-])c2)cc1 ?
CSC inhib: -26.8; MT1-MMP act inh: 1.1; UUG fidelity: -22.8; PABP FP inh: 4.3; Rce1 inh: inactive; eIF4H inh: 3.6; HIV Env fusion: 14.5; MT1-MMP act inh RFP: 3.8

What do the screens show for `O=C(O)CCN1C(=O)c2ccc(NC(=O)COc3ccccc3)cc2C1=O`?
CSC inhib: -14.4; MT1-MMP act inh: 2.0; UUG fidelity: -10.2; PABP FP inh: -0.6; Rce1 inh: inactive; eIF4H inh: -4.7; HIV Env fusion: 6.7; MT1-MMP act inh RFP: 3.9

Results for NC(=O)CC(NC(=O)c1ccc(Cl)cc1)C(=O)NCCc1ccc(S(N)(=O)=O)cc1 (stereo unspecified) ?
CSC inhib: -22.0; MT1-MMP act inh: 0.2; UUG fidelity: 5.9; PABP FP inh: 0.5; Rce1 inh: inactive; eIF4H inh: 3.8; HIV Env fusion: -13.9; MT1-MMP act inh RFP: 2.5

What do the screens show for `Cc1nnc(NC(=O)CCS(=O)(=O)Cc2ccccc2)s1`?
CSC inhib: 9.8; MT1-MMP act inh: 0.9; UUG fidelity: -4.6; PABP FP inh: 4.4; Rce1 inh: inactive; eIF4H inh: -6.0; HIV Env fusion: 20.4; MT1-MMP act inh RFP: 3.2

Results for COc1ccc(CNC(=O)C2(C)Cc3c(-c4ccccc4)ccnc3O2)cc1OC (stereo unspecified) ?
MT1-MMP act inh: 3.4; UUG fidelity: -21.6; HIV Env fusion: 13.2; MT1-MMP act inh RFP: -5.0

How did O=C(Cn1ccc(=O)[nH]c1=O)Nc1ccc(O)c([N+](=O)[O-])c1 do in these assays?
MT1-MMP act inh: -1.3; UUG fidelity: -7.8; HIV Env fusion: -7.9; MT1-MMP act inh RFP: 0.4
